Assay outcomes deposited in PubChem by National Center for Advancing Translational Sciences (NCATS).
N370S GC mod = inhibitors or activators of N370S glucocerebrosidase for Gaucher disease. P04062. N370S GC spleen homogenate, 4MU-glucoside fluorescence. Potency, µM (doses to about 59.4 µM), for the others: top-dose activity change, negative = inhibition, most hits filed as inhibitors. actives 0.092% (n = 330,000). AID 2101;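 also: 0% = full enzyme activity and -100% = no enzyme basal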
TDP1 block = inhibitors of human tyrosyl-DNA phosphodiesterase TDP1; Q9NUW8; recombinant TDP1, AlphaScreen DNA substrate cleavage; Potency, µM (titrated, usually from 130 µM), without a hit: at the highest dose activity change, negative = inhibition, usual class: inhibitors; actives 0.28% (n = 350,000); also: nearly all actives have a fitted effect of over 40% in size
Target sequence (Q9NUW8 whole entry, looked up): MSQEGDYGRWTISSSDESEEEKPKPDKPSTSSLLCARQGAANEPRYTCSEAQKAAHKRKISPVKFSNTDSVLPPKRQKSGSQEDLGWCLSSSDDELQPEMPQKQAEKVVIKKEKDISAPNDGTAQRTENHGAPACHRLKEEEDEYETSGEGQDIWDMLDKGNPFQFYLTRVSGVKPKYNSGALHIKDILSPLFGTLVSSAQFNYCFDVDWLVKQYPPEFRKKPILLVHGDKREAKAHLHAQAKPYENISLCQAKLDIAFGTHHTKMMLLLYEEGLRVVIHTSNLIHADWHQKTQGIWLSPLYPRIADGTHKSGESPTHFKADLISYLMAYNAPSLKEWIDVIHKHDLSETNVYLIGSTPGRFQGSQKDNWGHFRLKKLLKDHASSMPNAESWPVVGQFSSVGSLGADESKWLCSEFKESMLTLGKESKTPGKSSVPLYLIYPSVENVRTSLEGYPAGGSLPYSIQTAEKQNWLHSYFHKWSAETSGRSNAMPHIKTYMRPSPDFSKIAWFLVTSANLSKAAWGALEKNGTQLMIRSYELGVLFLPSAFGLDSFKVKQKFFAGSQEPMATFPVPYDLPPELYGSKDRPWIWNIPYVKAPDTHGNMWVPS
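Here, a 5' biotin and 3' phosphotyrosine-FITC DNA oligonucleotide reports Tdp1 activity: intact substrate bridges AlphaScreen beads, while cleavage leaves a 3' phosphate and drops signal. All incubations at room temperature.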
Starred values were filed as active, the others as inactive; ? = inconclusive; / = not tested or not shown; & = joins results of further samples; [ ] = remark or other dose. Calls follow the shape of the dose curve; as a rule, active = well fitted curve in the direction sought with a large enough effect; inconclusive = small, poorly fitted or top-dose-only effect, or another doubt; inactive = no such curve, though single readings can be large; an effect the other way counts as inactive or inconclusive. Unless noted, % is scaled to controls: 0 for no effect and ±100 for the full control effect; potency is read from the fitted curve at half-maximal effect. Not all compounds are listed, and most or all hits are left out here.

Every second line gives: N370S GC mod	TDP1 block
(1) COc1ccc(-c2csc(NC(=O)CCCc3nc4ccccc4c(=O)[nH]3)n2)cc1OC
→ -2.9%	4.7%[0.505 µM]
(2) CCOc1cc(C2C(C#N)=C(N)OC(C)=C2C(C)=O)cc(Br)c1O (centres undefined)
→ 8.3%	2.3%
(3) CCCN1CCN(CCCNC(=O)Cn2nc(-c3ccccc3)ccc2=O)CC1
→ 3.6%	-2.9%
(4) NC(=O)c1ccc(Oc2ccc3c(c2)CCC3)c([N+](=O)[O-])c1
→ 23.2%	3.4%
(5) O=C(O)c1cc2ccccc2[nH]1
→ 1.4%	6.8%[56.1 µM]
(6) COc1cccc(C(c2nnnn2C(C)(C)C)N2CCN(C3CCCCC3)CC2)c1OC (centres undefined)
→ 0.7%	1.9%
(7) COc1ccc(C(=O)NNC(=O)Cc2ccc(-c3ccccc3)cc2)cc1OC
→ 3.6%	5.7%
(8) Cc1nn(-c2ccccc2)c(N)c1N=O
→ -2.2%	/
(9) CCOc1ccc(OCc2ccc(C(=O)N3CCCC3)o2)cc1
→ 1.9%	-2.8%
(10) CCN(CC(=O)Nc1ccccc1C(=O)NC1CC1)Cc1cccs1
→ -12.5%	-2.2%
(11) CCOc1ccc(CCNC(=O)C2=C(C)C(=O)OC23CCC(C)CC3)cc1OCC (centres undefined)
→ -7.5%	1.2%&4.6%
(12) COc1ccc(-c2cnc(OC(C)(C)C)nc2OC(C)(C)C)cc1OC
→ 3.9%	-2.0%
(13) O=C(CSc1nnc(-c2ccc(C(F)(F)F)cn2)s1)c1ccc(Cl)cc1
→ -1.3%	2.6%
(14) Cc1ccnc(NS(=O)(=O)c2ccc(NC(=O)C3CCCO3)cc2)n1 (centres undefined)
→ -8.3%	5.8%
(15) O=S(=O)(c1ccccc1)N1CCN(C(=S)NCc2ccccc2)CC1
→ -0.2%	0.0%
(16) CCOc1ccc(NC(=S)NC2CC3CCC(C2)N3Cc2ccco2)cc1 (centres undefined)
→ 13.7%	4.7%
(17) CCOc1ccc(S(=O)(=O)N2CCC(C(=O)N3CCCCCC3)CC2)cc1Cl
→ -6.8%	2.9%
(18) COc1ccc(OC)c(/C=C/C(=O)N2C(=O)c3cccc(N)c3C2=O)c1
→ 1.7%	-6.7%
(19) CCOc1c2ccoc2nc2c(OC)c(OC)ccc12
→ 8.1%	3.8%
(20) COC(=O)COc1ccc(Cl)cc1C1Nc2ccccc2C(=O)N1c1ccc(OC)cc1 (centres undefined)
→ ?	3.4%
(21) CCOP(=O)(c1ccc(N(C)C)cc1)C(O)c1ccccc1F (centres undefined)
→ -9.7%	/
(22) COc1ccc(C(=O)OCC(=O)Nc2cc(C)on2)c(OC)c1OC
→ 1.1%	-8.0%
(23) Cc1cc(=O)oc2ccc(OCC(=O)N(Cc3ccc(F)cc3)Cc3ccco3)cc12
→ 29.0%	/
(24) Cc1onc(-c2ccccc2Cl)c1C(=O)N1CCc2ccccc21
→ 2.4%	1.1%
(25) COCC1CCCN(C(=O)c2cc(COc3cccc4cccnc34)on2)C1 (centres undefined)
→ -8.7%	1.5%
(26) Nc1cccc(S(=O)(=O)Nc2ccc(SC(F)F)cc2)c1
→ -11.6%	1.4%
(27) CCOc1ccc(OCC)c(NS(=O)(=O)c2ccc3[nH]c(=O)ccc3c2)c1
→ /	3.3%
(28) CCOC(=O)CN(C(=O)CN1CCC(n2nnc3cc(C)ccc32)CC1)c1ccccc1
→ -8.5%	7.5%
(29) Cc1nc2c(F)c(F)c(C(F)(F)F)c(F)c2[nH]1
→ 2.2%	4.2%
(30) NC(=O)C1CCN(C(=S)NCCc2ccccc2)CC1
→ -8.2%	-7.2%

Brought forward from above: 3 compounds, then new ones.
Every second line gives: N370S GC mod	TDP1 block
(28) CCOC(=O)CN(C(=O)CN1CCC(n2nnc3cc(C)ccc32)CC1)c1ccccc1
→ -8.5%	7.5%
(29) Cc1nc2c(F)c(F)c(C(F)(F)F)c(F)c2[nH]1
→ 2.2%	4.2%
(30) NC(=O)C1CCN(C(=S)NCCc2ccccc2)CC1
→ -8.2%	-7.2%
(31) CC1CCC(C(C)C)C(OP(=O)(c2ccccc2)C(O)c2ccncc2)C1 (centres undefined)
→ -19.1%	3.7%
(32) O=C(NCCNC(=O)c1ccc(Br)o1)c1cccnc1
→ -4.7%	3.9%[56.1 µM]
(33) CCOc1ccccc1C(=O)Nc1c[nH]c(=O)[nH]c1=O
→ -18.3%	-0.5%
(34) COc1cccc(CN=C2Nc3ccccc3CS2)c1
→ 6.6%	5.9%
(35) Cc1ccc(S(=O)(=O)NCc2nc3nc(C)cc(C)n3n2)c(C)c1
→ 3.5%	-2.5%
(36) CSc1ccccc1C(=O)NC1CCCN(Cc2ccccc2F)C1 (centres undefined)
→ 1.4%	2.3%
(37) Cc1ccc(CNc2oc(C)nc2C#N)cc1
→ -2.5%	-5.2%
(38) COCC1CCN(C(=O)CCc2nnc(C3(c4ccc(Cl)cc4)CCC3)o2)C1 (centres undefined)
→ -1.0%	2.9%[56.1 µM]
(39) CCOC(=O)C1=C(C)c2ccccc2OC1(C)C(=O)OCC (centres undefined)
→ 6.6%[89.1 µM]	-6.5%[56.1 µM]
(40) COC(=O)c1scc(C)c1NC(=O)Nc1ccccc1
→ 2.2%	-2.8%
(41) CCc1ccc(N/C(=N/c2nc(C)cc(C)n2)NC(C)=O)cc1
→ -7.3%	/
(42) COc1ccc(CNC(=O)Cc2cccs2)cc1
→ 4.4%	2.9%
(43) Cc1ccc(Nc2nc(C(=O)NCCCN3CCOCC3)cs2)cc1
→ -0.3%	3.0%
(44) COC(=O)c1ccc(CSc2nc3ccccc3[nH]2)o1
→ -17.1%	4.1%
(45) Cc1ccccc1Oc1nc2ccccc2n2cnnc12
→ 2.7%	-3.8%
(46) CC(C)(C)NC(=O)COC(=O)c1ccc(Cl)cc1O
→ -3.3%	3.5%
(47) COc1ccc2nc(SCC(=O)NC3CCCCC3)[nH]c2c1
→ 2.7%	5.5%
(48) CC(C)Nc1oc(-c2cccc3ccccc23)nc1C#N
→ ?	-8.6%
(49) CCCCOn1c(C)c(C(=O)OCC)c2c3no[n+]([O-])c3ccc21
→ 6.7%	5.9%
(50) COCCNC(=O)CCCn1c(=O)c2cc(OC)c(OC)cc2n(CC(=O)c2ccccc2)c1=O
→ 13.3%	5.9%
(51) Cc1ccc(NC(=O)CCc2nnc3ccc(N4CCN(C)CC4)nn23)cc1F
→ 3.7%	3.5%
(52) CC(C)Oc1cccc(C(=O)C2CCCN(Cc3ccc(Oc4ncccn4)cc3)C2)c1 (centres undefined)
→ -13.5%	3.6%
(53) COc1cc(C(=O)OC(C)CN2C(C)CCCC2C)cc(OC)c1OC (centres undefined)
→ -12.9%	5.0%
(54) CCN1CCCC1CNC(=O)C(=O)NC(C)c1ccccc1 (centres undefined)
→ -10.2%	2.4%
(55) O=C(O)CSC(=S)N1CCCC1
→ -5.9%	/
(56) CCCCN(CCCC)C(=O)C[n+]1cccc(/C=N/O)c1
→ -4.3%	-5.3%
(57) Cc1cc(=O)cc(C)n1-c1ccccc1N1CCOCC1
→ 2.8%	4.1%
(58) CN(C)C(=O)c1ccc(NC(=O)c2cccnc2)cc1
→ 4.6%	1.0%
(59) CC1CC(C)CN(CC(=O)N2CCc3[nH]c4ccccc4c3C2)C1 (centres undefined)
→ 9.7%	-4.1%
(60) CC(=O)OCc1cc(-c2nc3ccccc3[nH]c2=O)nn1-c1ccc(Cl)cc1
→ 18.5%	-2.6%
(61) Cc1ccc(-c2cc(-c3n[nH]c(=S)n3C)c3ccccc3n2)cc1
→ 2.2%	8.1%
(62) C=CCOc1ccc(CNCCO)cc1OCC
→ -14.9%	-5.4%
(63) Cc1cc(NC(=O)c2c(F)cccc2Cl)no1
→ 12.0%	5.1%
(64) Cc1cc(C)n2nc(SCc3ncc(-c4ccccc4)o3)nc2n1
→ 9.1%	3.6%
(65) Cc1[nH]n(-c2ccc([N+](=O)[O-])cc2)c(=O)c1C=NCCc1c(C)[nH]c2ccccc12
→ 15.5%	0.0%
(66) CCCCOc1ccc(C(=O)NCC(=O)NCC(c2ccc(F)cc2)N2CCOCC2)cc1 (centres undefined)
→ -6.0%	/
(67) CCOc1ccccc1NC(=O)COC(=O)C1CC1
→ 20.9%	0.0%
(68) CCCOc1ccc(N2C(=O)CC(N(CCCO)C(=O)CC)C2=O)cc1 (centres undefined)
→ -4.4%	/
(69) Nc1nc(-c2ccccc2)c(-c2ccccc2)o1
→ 1.3%	-1.2%
(70) CCOC(=O)N1CCN(C(=O)c2ccc3nc(N4CCCCC4)sc3c2)CC1
→ 1.0%	3.2%
(71) Cc1cnc(C(=O)Nc2ccccc2C(=O)N2CCOCC2)cn1
→ -6.0%	4.5%
(72) CC(C)C(NS(=O)(=O)c1ccccc1)C(=O)OCC(=O)NNC(=O)c1ccccc1 (centres undefined)
→ -5.8%	-0.4%
(73) CC(=O)c1noc(C)c1C(=O)Nc1nccs1
→ 3.3%	4.7%
(74) Cc1nnsc1S(=O)(=O)c1ccccc1
→ -10.0%	/
(75) CCc1ccccc1NC(=O)C1CCN(C(=O)N2CCOc3ccccc32)CC1
→ -5.5%	/

Some of these compounds in order of SMILES length, low to high:
Every second line gives: N370S GC mod	TDP1 block
(74) Cc1nnsc1S(=O)(=O)c1ccccc1
→ -10.0%	/
(73) CC(=O)c1noc(C)c1C(=O)Nc1nccs1
→ 3.3%	4.7%
(69) Nc1nc(-c2ccccc2)c(-c2ccccc2)o1
→ 1.3%	-1.2%
(61) Cc1ccc(-c2cc(-c3n[nH]c(=S)n3C)c3ccccc3n2)cc1
→ 2.2%	8.1%
(75) CCc1ccccc1NC(=O)C1CCN(C(=O)N2CCOc3ccccc32)CC1
→ -5.5%	/
(70) CCOC(=O)N1CCN(C(=O)c2ccc3nc(N4CCCCC4)sc3c2)CC1
→ 1.0%	3.2%
(66) CCCCOc1ccc(C(=O)NCC(=O)NCC(c2ccc(F)cc2)N2CCOCC2)cc1 (centres undefined)
→ -6.0%	/

Further results follow.
Every second line gives: N370S GC mod	TDP1 block
(76) Cc1ccc(C(=O)NC(=S)Nc2ccccc2N2CCCC2)cc1[N+](=O)[O-]
→ 0.2%	-2.3%
(77) O=S(=O)(c1ccccc1)N1CCN(c2ccccc2)CC1
→ 0.5%	1.9%&4.2%
(78) CC(O)[C@H]1CC[C@H]2[C@@H]3CC[C@H]4C[C@H](O)CC[C@]4(C)[C@H]3[C@H](O)C[C@]12C (some centres undefined)
→ -12.1%	/
(79) Cn1c(CC(=O)Nc2cccc(Cl)c2Cl)nnc1SCC(=O)NC1=NCCS1
→ -1.5%	?
(80) COc1ccc(CCNC(=O)C2CC(=O)N(CCc3ccc(C)cc3)C2)cc1OC (centres undefined)
→ 3.8%	4.9%
(81) O=C(N1CCOCC1)N(Cc1ccco1)CC1CCCO1 (centres undefined)
→ -0.6%	-1.0%
(82) CC(SCC(=O)Nc1ccc(F)cc1)c1nc2ccccc2c(=O)[nH]1 (centres undefined)
→ -12.1%	2.3%
(83) COc1cccc(CN2CCN(C3CCN(c4ccccc4F)CC3)CC2CCO)c1 (centres undefined)
→ -7.2%	0.0%
(84) CCn1cnc2cc(NCc3cccs3)ccc21
→ -10.0%	-4.3%
(85) NC1=NC(=O)/C(=C/c2ccc(OCC(=O)O)cc2)S1
→ -0.1%	/
(86) O=S(=O)(NCC(c1ccc2c(c1)OCO2)N1CCOCC1)c1ccc(F)cc1 (centres undefined)
→ -14.8%	11.7%
(87) CCN1CCC(=NNC(=O)c2ccc(C)c([N+](=O)[O-])c2)CC1
→ /	0.9%
(88) O=C(CN1CCN(C/C=C/c2ccccc2)CC1)NC(=O)NC1CCCCC1
→ -2.7%	0.0%
(89) CC(=O)OC(COc1cccc(C)c1)Cn1cnc2ccccc21 (centres undefined)
→ 14.8%	5.1%
(90) O=C(CSc1ncnc2sc3c(c12)CCC3)N1CCOCC1
→ 3.1%	-13.9%
(91) COc1cc(OC)c(OC)cc1CN1CCN(Cc2ccc(C(F)(F)F)cc2)CC1
→ -2.9%	/
(92) CC(NC(=O)c1ccc(N(C)C)cc1)C(c1cccs1)N1CCN(C)CC1 (centres undefined)
→ -21.8%	6.2%
(93) O=C1CCN(S(=O)(=O)c2cccs2)c2ccc(C(F)(F)F)cc2N1
→ -4.7%	2.3%
(94) C/C=C\C(=O)Nc1cccc(C2=NOC3(C2)C[C@H](C(N)=O)N(C(=O)Cc2ccc([N+](=O)[O-])cc2)C3)c1 (some centres undefined)
→ -2.3%	3.5%
(95) O=C(Cc1cccs1)N1CCN(C(=O)C2CCCO2)CC1 (centres undefined)
→ 11.6%	1.0%
(96) NNC(=O)/C(=C\c1cccs1)NC(=O)c1ccccc1
→ 10.7%	5.4%
